Bioassay records (PubChem BioAssay)
CtBP-E1A blk = inhibitors of CtBP/E1A interaction; AlphaScreen GST-E1A/His-CtBP binding, 1536-well; stronger effect = lower value; control for the full effect not named in the record; activity change, % (concentration not given with the values); AID 651724; 340,000 tested, 0.49% active; in the data active means activity change below about -65%; inconclusive means about -30% to -65%; inactive means above about -30%; note: % is set by controls: 0 for no effect and ±100 for the full control effect
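Protein mix (5X: 125 nM each GST-E1A, His-CtBP) was incubated with pinned compound 2 h at 37 deg C in dark, in 50 mM Tris pH 8.0 buffer with 300 mM NaCl. Glutathione donor and nickel acceptor beads followed; AlphaScreen signal read after 1 h.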
D2 PAM = human D2 receptor positive allosteric modulation; DiscoveRx D2 beta-arrestin cells, luminescence, 90 min; 100% = 57 uM dopamine signal; potentiation, % (test concentration not listed); 360,000 tested, 0.23% active; AID 624464; active = potentiation of 50% or more; inconclusive = 30% to 50%; inactive = 30% or less;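 note: compound concentration not given in the record; tested on top of an EC20 dose of dopamine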
Target sequence (P14416 whole entry, looked up): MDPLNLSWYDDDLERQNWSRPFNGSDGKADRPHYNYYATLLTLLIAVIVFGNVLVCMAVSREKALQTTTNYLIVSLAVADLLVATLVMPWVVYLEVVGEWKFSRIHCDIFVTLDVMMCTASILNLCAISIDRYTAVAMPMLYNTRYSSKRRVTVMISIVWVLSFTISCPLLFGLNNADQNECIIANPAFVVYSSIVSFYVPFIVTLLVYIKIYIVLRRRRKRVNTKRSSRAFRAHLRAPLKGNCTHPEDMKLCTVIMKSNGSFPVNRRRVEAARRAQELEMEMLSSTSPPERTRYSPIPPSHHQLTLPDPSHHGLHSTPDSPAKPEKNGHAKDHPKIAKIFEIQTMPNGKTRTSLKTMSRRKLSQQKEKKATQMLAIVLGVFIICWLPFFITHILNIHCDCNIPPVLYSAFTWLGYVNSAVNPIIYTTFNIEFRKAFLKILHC
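PathHunter D2 cells, attached overnight at 37 deg C, received compound in DMSO plus dopamine at EC20 (50 nM final) for 90 min at 37 deg C. Beta-arrestin recruitment was read as luminescence after 1 h with detection reagent at ambient temperature.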
Six1-Eya2 inh = Six1/Eya2 interaction inhibition | 360,000 tested, 0.56% active | AID 651725 | activity change, % (concentration not given with the values) | AlphaScreen GST-Six1/His-Eya2 binding, biochemical; stronger effect = lower value; control for the full effect not named in the record; in the data active = activity change below about -65%; inconclusive = about -30% to -65%; inactive = above about -30%; note: % is set by controls: 0 for no effect and ±100 for the full control effect
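GST-Six1 + His-Eya2 (5X stock: 250/500 nM); Tris pH 8.0, 300 mM NaCl, 0.05% BSA, 0.02% Tween 20; GSH donor/Ni acceptor beads; 1 h 37 °C dark; AlphaScreen readout.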
D2 agonist = activates the human D2 dopamine receptor. P14416. DiscoveRx PathHunter D2 beta-arrestin, luminescence, 90 min; 100% = 57 uM dopamine signal. activation, % (no concentration beside the values). 360,000 tested, 0.084% active; in the data active = activation above about 40%; inconclusive = about 15% to 40%; inactive = below about 15%; note: compound concentration not given in the record; the text of the record calls up to 30% inactive
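Agonist mode: compounds alone added to overnight-plated D2 PathHunter cells for 90 min at 37 C, with 57 uM final dopamine (EC100) defining full response. Beta-arrestin recruitment detected by chemiluminescent reagent, read after 1 h at ambient temperature.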
gsp ag = gsp mutant agonism | 340,000 tested, 0.13% active | Potency, µM (series often up to 76.9 µM), inactives show at the highest dose activation (cAMP increase), usual class: activators | AID 624287 | gsp mutant cells, cAMP HTRF, 30 min; control for the full effect not named in the record; active = well fitted activation curve with a large enough effect; inconclusive = small, poorly fitted or top-dose-only effect, or another doubt; inactive = no such curve, though single readings can be large or run the other way; cell line not stated here;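 note: phosphodiesterase inhibitor Ro 20-1724 added with compounds to block cAMP breakdown; potency is the fitted concentration of half-maximal effect; nearly all actives have a fitted effect of over 60% in size; about a fifth of the inactives were tested at one dose only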
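Cells stably selected in G418 were plated at 2000/well, grown 16-24 hr, then given compounds in DMSO with the PDE inhibitor […] (300 uM solution added) for 30 min at 37C; cAMP was read by HTRF.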
gsp antagonist = antagonists of gsp mutant (McCune-Albright syndrome) | gsp-mutant cells, cAMP HTRF, 30 min; control for the full effect not named in the record | Potency, µM (highest dose often 76.9 µM), inactives show at the top dose activity change, negative = inhibition, actives largely listed as inhibitors | 340,000 tested, 0.4% active; active = falling curve of any shape with a large fitted effect; inconclusive = falling curve, mostly with a smaller effect; inactive = flat or rising curve; cell line not stated here;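 note: intracellular cAMP measured with PDE inhibitor Ro 20-1724 present during compound exposure; potency is the fitted concentration of half-maximal effect; % is set by controls: 0 for no effect and ±100 for the full control effect; nearly all actives have a fitted effect of over 65% in size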
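Cells, 2000/well, grown 16–24 h in DMEM 10% FBS with 0.5 mg/ml G418, then compounds plus […] (300 uM addition stock), 30 min at 37C. cAMP read by HTRF (cAMP-d2 and anti-cAMP antibody-K in lysis buffer) after 30 min RT.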
* = called active by the depositor; ? = inconclusive; . = no result given; [ ] = remark or other dose.

cpd	Molecule	CtBP-E1A blk	D2 PAM	Six1-Eya2 inh	D2 agonist	gsp ag	gsp antagonist
1	CN(/N=C/c1cc(Cl)ccc1O)C1=NS(=O)(=O)c2ccccc21	?	-13.8	-12.0	-2.9	3.8%	-28.5%
2	O=S(=O)(c1ccc(Br)cc1)N1CCCC1c1nc2ccccc2s1 (stereo not given)	7.0	-1.4	5.0	-1.2	-5.2%	16.8%
3	O=C(NCCC1=CCCCC1)C1CCN(C(=O)Cc2ccccc2)CC1	3.0	1.9	-15.1	-4.4	-18.3%[15.4 µM]	-4.8%
4	CCOc1ccc(NC(=O)CCCCCN2C(=O)[C@@H]3Cc4ccccc4CN3C2=O)cc1	3.6	-14.6	-1.4	-2.5	?	-9.4%
5	Cc1cccc(N2CCN(c3nnnn3-c3ccccc3)CC2C)c1 (stereo not given)	-10.4	-12.3	0.0	-3.8	-4.6%	?
6	Cc1cccc(N2CCN(C(=O)c3ccc(Cl)c(S(=O)(=O)NCc4ccco4)c3)CC2)c1C	-15.7	-16.1	-7.4	-1.6	19.3%	?
7	CCC(NC(=O)Nc1nccs1)(C(F)(F)F)C(F)(F)F	0.5	5.9	5.5	2.8	12.1%	8.8%
8	C=CCn1c(SCC(N)=O)nnc1-c1cnccn1	-9.0	-4.8	-4.2	-4.4	24.7%	15.1%
9	Cc1cccc(C(=O)NCc2nnc(SCC(=O)N3CCN(c4ccccc4)CC3)n2C)c1	-8.2	3.2	2.1	0.8	24.0%	1.6%
10	Cc1c(F)cccc1NS(=O)(=O)c1ccc2c(c1)c(C)cc(=O)n2C	.	-15.1	-0.6	-2.2	-35.9%[inhibitor]	-4.8%
11	O=C(Nc1cccc(S(=O)(=O)c2cccc(NC(=O)c3ccco3)c2)c1)c1ccco1	-8.1	1.5	-6.2	1.8	-5.2%[15.4 µM]	-39.6%
12	Cc1ccc(OCCC(=O)OCC(=O)NC(=O)NC2CCCCC2)cc1	-11.7	5.2	0.0	0.7	1.8%	3.2%
13	CN(C)S(=O)(=O)c1cccc(NC(=O)c2ccc(Sc3nncn3C)c([N+](=O)[O-])c2)c1	2.3	0.4	-14.9	-0.2	?	-9.2%
14	COc1ccc(CCN(C)C2CC(=O)N(c3ccccc3)C2=O)cc1OC (stereo not given)	2.3	-24.5	1.8	5.0	-2.4%[15.4 µM]	14.7%
15	O=C(CSc1nnc(CNC(=O)c2ccco2)o1)Nc1cccc(F)c1	-0.5	-15.2	-0.1	-5.0	1.0%	-7.1%
16	O=C(NCC(=O)N(c1ccc(F)cc1)C(C(=O)NC1CCCC1)c1cccnc1)c1ccco1 (stereo not given)	-1.5	1.6	15.3	-3.1	9.4%[15.4 µM]	-8.4%
17	COc1ccc(-c2csc(Nc3ccc(O)cc3)n2)cc1	-24.8	9.0	-17.1	12.1	17.3%	-20.1%
18	CN(C)CCN(Cc1ccco1)S(=O)(=O)c1csc(C(N)=O)c1	4.4	-12.6	9.0	3.7	?	1.0%
19	COc1ccccc1NS(=O)(=O)c1ccc(Cl)cc1	6.9	-11.7	6.5	-2.0	-57.7%[inhibitor]	-5.7%
20	COc1cccc(-n2c(C)nnc2SCC#N)c1	5.3	-11.4	-1.4	-2.4	-18.3%	0.9%

The closing 2 compounds of the part above lead into the next.
cpd	Molecule	CtBP-E1A blk	D2 PAM	Six1-Eya2 inh	D2 agonist	gsp ag	gsp antagonist
19	COc1ccccc1NS(=O)(=O)c1ccc(Cl)cc1	6.9	-11.7	6.5	-2.0	-57.7%[inhibitor]	-5.7%
20	COc1cccc(-n2c(C)nnc2SCC#N)c1	5.3	-11.4	-1.4	-2.4	-18.3%	0.9%
21	O=C(CN(Cc1ccccc1F)S(=O)(=O)c1ccc(Cl)cc1)NCCC1=CCCCC1	6.1	2.0	1.2	-1.8	-2.0%	?
22	C/C(=N/NC(=O)c1nnn(-c2nonc2N)c1COc1ccccc1)c1ccccc1Cl	0.0	10.9	30.2	3.5	12.2%	-26.7%
23	COc1ccc([N+](=O)[O-])c(C=CC(=O)c2ccccn2)c1	0.6	-7.9	-18.5	4.6	5.6%	.
24	COC(=O)c1c(-c2ccc(OC)cc2)oc2ccc(-c3ccc(OC)nc3)cc12	-2.8	-44.1	4.4	0.2	.	10.0%
25	COCCn1c(Cc2cccn2C)nnc1SCC(=O)Nc1nccs1	-1.0	-4.1	-13.5	0.0	?	6.5%
26	COc1cc(OC)cc(OC(=O)C2CCN(C(=O)c3ccc(F)cc3)CC2)c1	8.4	-16.5	4.6	0.0	-8.7%	-7.7%
27	COc1ccc2cc(-c3ccccc3)ncc2c1	1.9	-5.5	4.2	1.5	.	-4.0%
28	COc1ccc(-c2c(S(=O)(=O)c3ccccc3)cnn2-c2ccccc2)cc1	-4.9	-5.7	-5.5	-2.2	-39.8%[inhibitor]	?
29	CNc1ccccc1C(=O)OCC(=O)N1CCN(c2ccc(OC)cc2)CC1	-0.1	-3.6	1.7	-4.9	13.5%[15.4 µM]	-13.9%
30	c1cc2nc(C34CC5CC(CC(C5)C3)C4)[nH]c2cn1	6.1	-6.3	-1.8	0.9	4.7%	7.3%
31	CCC1NC(=O)c2cccnc2-n2c1nc1cc(F)ccc1c2=O (stereo not given)	4.4	7.8	-3.6	-9.6	-24.0%	.
32	CCc1ccc(N(CC(=O)NCc2ccco2)C(=O)CCC(=O)Nc2nccs2)cc1	-0.1	-19.0	-3.8	-2.9	0.1%	4.5%
33	CCOC(=O)c1ccc(NC(=O)C(C)NS(=O)(=O)c2ccc(OC)cc2)cc1 (stereo not given)	-15.9	-12.9	-0.2	-1.1	?	-6.4%
34	COCCNC(=O)C(c1ccc(C)cc1)N(C(=O)CCC(=O)Nc1ccccn1)c1ccc(C)cc1 (stereo not given)	-4.9	0.2	-1.4	-1.1	-1.6%[15.4 µM]	8.0%
35	Cc1nc2sccc2c(=O)n1-c1cccc(Cl)c1	2.3	6.5	2.2	-1.6	?	13.2%
36	CN(CC(=O)Nc1ccc2c(c1)OCO2)CC(=O)Nc1ccc(F)c(F)c1F	2.0	-1.7	-1.8	-3.9	-5.7%	3.0%
37	N#Cc1ccc(-c2nc3ccccc3nc2-c2ccccc2)cc1C#N	2.4	-0.4	0.5	0.2	-5.7%[15.4 µM]	-12.9%
38	COc1ccc(NC2CCCN(C(=O)CCc3scnc3C)C2)cc1 (stereo not given)	-0.1	1.5	4.5	-5.4	27.0%	-15.4%
39	Cc1ccc(S(=O)(=O)C2CS(=O)(=O)CC2O)cc1 (stereo not given)	1.3	-7.0	-1.2	-1.0	5.5%	2.6%
40	CC(=O)Nc1ccc(C(=O)COC(=O)CCc2ccccc2)c(F)c1	-1.5	-13.8	0.1	-1.1	8.0%	4.3%
41	Cc1ccsc1C(=O)N1CCC1(C)C(=O)NCc1cccnc1 (stereo not given)	2.4	-2.0	0.8	-3.3	.	.
42	Cc1nn(-c2ccc(F)cc2)c(Cl)c1/C=C/C(=O)OCC(=O)Nc1c(F)c(F)c(F)c(F)c1F	4.0	-10.1	6.9	-3.9	14.7%[15.4 µM]	-15.4%
43	CC(=O)N/C(=C/c1ccc2c(c1)OCO2)C(=O)N1CCOCC1	14.4	-2.5	3.1	1.1	1.1%[15.4 µM]	-0.5%
44	Cc1ccc(SCc2nc3ccccc3n2CC(=O)Nc2ccc(Cl)cc2)cc1	-3.4	-11.1	-1.3	-2.3	2.1%	-20.2%
45	CC(=O)N1CCOc2ccc(S(=O)(=O)N3CCC(C(=O)NCc4ccc(F)cc4)CC3)cc21	0.0	-13.6	-6.6	0.0	-0.1%	-10.4%
46	CCCc1nnc(NC(=O)CCC(=O)NCc2ccc(Cl)cc2Cl)s1	.	-7.6	7.6	-2.4	-19.9%	-14.5%
47	CCSc1nnc(NC(=O)CSc2nc3c(c(=O)n2C)SC(C)C3)s1 (stereo not given)	13.3	4.4	1.0	1.6	-25.9%	-16.1%
48	CCOC(=O)C(C)Sc1nc2c(c(=O)[nH]c(=O)n2C)n1CCc1ccccc1 (stereo not given)	0.5	-10.9	-0.5	1.8	-33.3%[inhibitor]	2.4%[15.4 µM]
49	Brc1ccc(-c2csc(N3CCCCCC3)n2)cc1	14.7	-3.1	8.6	-1.2	-23.8%	1.5%
50	NC(=O)c1ccc(/C=N/O)nc1	.	-0.9	-6.3	-1.9	-29.6%	9.9%
51	Cc1cc(C)cc(N(CC(=O)Nc2cccc(C)n2)S(=O)(=O)c2c(C)noc2C)c1	-2.4	-12.5	0.1	-2.1	-21.2%	-12.7%
52	O=C(Oc1ccc2ccc(O)cc2c1)C1CCCCC1	.	2.6	-2.4	4.1	10.9%[15.4 µM]	1.5%
53	COc1ccc(CCNC(=O)C/C(C)=N/NC(=O)Cc2cccc3ccccc23)cc1OC	-0.8	-7.2	-9.4	-6.3	-6.6%[15.4 µM]	0.4%
54	Cc1ccccc1N1CCN(CC(=O)NCc2ccc(Cl)cc2)CC1	5.6	-2.4	-0.4	-3.1	-2.3%	-3.3%
55	COc1ccc(C2NC(=O)NC(C)=C2C(=O)OCc2ccccc2)cc1 (stereo not given)	1.5	4.5	6.9	8.2	-39.0%[inhibitor]	-8.6%
56	CCC(=O)NC(=S)Nc1ccc(S(=O)(=O)NC(C)C)cc1	1.6	-7.0	-1.2	-4.4	12.2%	0.9%
57	CC(=O)c1ccc(S(=O)(=O)N(CC(=O)NC2CC2)Cc2ccc(F)cc2)cc1	9.0	-30.0	-3.4	-5.3	22.8%[15.4 µM]	4.6%
58	Cc1nn(C)c(C)c1S(=O)(=O)N1CCC(CO)(Cc2ccc(Cl)cc2)CC1	5.0	-3.6	3.3	-1.2	12.6%[15.4 µM]	-21.0%
59	CCOc1cc(N2CCOCC2)c(OCC)cc1NC(=O)c1ccc(NC(C)=O)cc1	-3.7	-4.4	-10.1	-3.4	-2.5%[15.4 µM]	-24.9%
60	COCCN1Cc2cccc(C(=O)NCCc3ccccc3)c2C1=O	4.5	4.2	2.5	3.4	13.5%	2.7%
61	Cc1ccc(NC(=S)N2CCC(N(C)CC3CCCO3)CC2)cc1 (stereo not given)	-1.2	-4.5	-0.5	-1.6	-7.1%[15.4 µM]	1.8%
62	COc1cc(O)c(C(CC(=O)N2CCCC2)c2ccc(N(C)C)cc2)c(OC)c1 (stereo not given)	14.9	-4.4	5.8	-5.3	.	-1.2%
63	O=C(NCCOc1ccccc1F)C1CC(=O)N(c2ccc3c(c2)OCCO3)C1 (stereo not given)	5.5	-3.7	1.8	9.6	?	-5.3%
64	Cc1cc(C)c(N=Cc2c(O)n(-c3nccs3)c(=O)c3ccccc23)c(C)c1	0.3	-32.8	-3.5	-2.6	-2.1%	-12.7%
65	CC(=O)c1cccc(NC(=O)Nc2csc3c2CCCC3)c1	-11.8	-27.6	-14.7	-3.2	-7.9%	-24.3%
66	CCN(CC)CCNC(=O)CSc1c2c(nc3cc(Cl)ccc13)CCCC2	.	-15.5	-0.5	-7.8	?	4.9%
